# SARS PLP yeast = blocks SARS-CoV papain-like protease in a yeast assay; S. cerevisiae expressing SARS-CoV PLpro, growth rescue; control for the full effect not named in the record; Potency, µM (highest dose often 32.9 µM), for the others: at the top dose activity, positive = growth rescue; 330,000 tested, 0.19% active; AID 485353; active means well fitted rising curve with a large enough effect; inconclusive means small, poorly fitted or top-dose-only effect; inactive means no such curve, though single readings can be large or run the other way; further: 0% is about no effect; nearly all actives have a fitted effect of over 55% in size; growth read by luminescence after 48 h
# StopGo reporter = lowers the luciferase signal of an FMDV 2A StopGo reporter; human cells with a luciferase reporter of 2A StopGo recoding; control for the full effect not named in the record; Potency, µM (titrated, usually from 57.9 µM), without a hit: at the top dose signal change, negative = less light; 410,000 tested, 1.2% active; AID 1159524; active = well fitted falling curve with a large enough effect; inconclusive = small, poorly fitted or top-dose-only effect; inactive = no such curve, though single readings can be large or run the other way; tested in HEK293T cells; further: on the % scale 0 is the no-effect control and ±100 the full control effect; nearly all actives have a fitted effect of over 45% in size; luciferase light after 4 h
# RE007 growth inh = less growth of the S. pombe RE007 Vpr strain. 360,000 tested, 0.21% active. Potency, µM (highest dose often 92.2 µM), without a hit: at the highest dose activity change, negative = less growth. S. pombe RE007 Vpr strain, BacTiter-Glo ATP luminescence, 24 h; control for the full effect not named in the record; active = well fitted falling curve with a large enough effect; inconclusive = small, poorly fitted or top-dose-only effect; inactive = no such curve, though single readings can be large or run the other way;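 further: on the % scale 0 is the no-effect control and ±100 the full control effect; nearly all actives have a fitted effect of over 50% in size; the assay follows cell death caused by Vpr and the record does not say whether a fall means rescue or toxicity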
#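 Fission yeast RE007 carrying one integrated HIV-1 vpr copy, seeded at OD 0.01 in PMG+AL medium with 23 nL pinned compound. Grown 24 h at 30 degrees; viability read by BacTiter-Glo luminescence after 5 min.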
# The depositor's hits bear a star; ? = inconclusive; [ ] = remark or other dose. Potency means the concentration at half of the fitted maximal effect. Some of the compounds tested (hit frequency here may not be typical).
Molecule,SARS PLP yeast,RE007 growth inh,StopGo reporter
CCCCc1nnc(NC(=O)CCN2C(=O)C3CC=CCC3C2=O)s1 (stereo not drawn),3%,-3%,-1%
Cc1cc(N/N=C2/CCCc3ccccc32)nc2ccccc12,-10%,?,37%[activator]
Cc1ccc(-c2nn(-c3ccc(F)cc3)cc2C(=O)N2CCN(C3CCS(=O)(=O)C3)CC2)cc1 (stereo not drawn),-2%,-3%,18%
C=CCC[C@@H](Cc1ccc(F)cc1)C(=O)OC[C@@H](NC(=O)[C@H](CC=C)CC(=O)NCCO)C(C)(C)C,-5%,-6%,-20%
O=C(Nc1ccc(Cl)c(Cl)c1)c1ccccc1,1%,-21%,5%
Cc1ccccc1N1CCN(C(=O)c2cc(C3CC3)nn2-c2ccccc2)CC1,-13%,4%,8%
COC(=O)C1=C(c2ccc3ccccc3c2)C[C@@H]2CC[C@H]1N2C(=O)NCCO,-13%,10%,38%[activator]
O=[N+]([O-])c1ccc(Cc2ccccn2)cc1,-8%,5%,0%
CC(C)(O)c1cc2ccccc2c(=O)o1,-6%,-2%,2%
CN(CCCCCCCCCCN(C)C(=O)Oc1cccc([N+](C)(C)C)c1)C(=O)Oc1cccc([N+](C)(C)C)c1,0%,-5%[18.4 µM],-23%
Cc1ccc(NC(=O)CN(C)C(=O)c2cccc(S(=O)(=O)N3CCc4ccccc43)c2)cc1,0%,-8%,42%[activator]
CC(=O)Nc1ccc(/C=N\NC(=O)CNS(=O)(=O)c2ccc([N+](=O)[O-])cc2)cc1,-1%,-2%,-16%
Cc1ccc2nc(SCC(=O)N(C)C3CCS(=O)(=O)C3)[nH]c2c1 (stereo not drawn),4%,-9%,-3%
Cc1ccc(C)c(S(=O)(=O)Nc2ccc3cn[nH]c3c2)c1,5%,7%,86%[activator]
CC(C)/C=C1\CC/C(=C\c2cccnc2)C1=O,-12%,-11%,28µM*
COc1ccc(C(c2c(NC(=O)c3ccco3)sc(C)c2C)N2CCOCC2)cc1OC (stereo not drawn),-3%,6%,-24%
O=C(CN1CSCC1=O)N1CCN(S(=O)(=O)c2ccc(Cl)cc2)CC1,2%,-10%,4%
Cc1ccccc1NC(=O)C1c2cccc[n+]2CC(=O)N1Cc1ccc2c(c1)OCO2 (stereo not drawn),-2%,-3%,12%
CCOc1ccc(S(=O)(=O)Nc2cccc(C(=O)NCCCN3CCOCC3)c2)cc1,14%,-6%,-18%
CCN(C[C@H]1N[C@@](C)(C(=O)OC)[C@H]2C(=O)N(Cc3ccccc3)C(=O)[C@@H]12)S(=O)(=O)c1ccc(C(C)(C)C)cc1,-2%,-5%,-22%
Cc1ccc(NC(=O)Cn2c(=O)n(CCC(=O)NC3CCN(Cc4ccccc4)CC3)c(=O)c3ccccc32)cc1,3%,-3%,-1%
O=C(NNC(=S)Nc1ccccc1)C1CCCCC1,2%,4%,89%[activator]
O=C(COC(=O)c1ccc(Br)cc1)Nc1cccnc1Cl,0%,5%,-19%
COc1ccc(CC(=O)OC(C)C(=O)NCc2ccc3c(c2)OCO3)cc1OC (stereo not drawn),2%,-5%,-6%
O=C(COC(=O)/C=C/c1cccc([N+](=O)[O-])c1)Nc1ccc(Cl)cn1,0%,0%,-13%
Cc1cccc(N2C(=O)CSC23CCCCC3)c1,-13%,4%,1%
O=C(CN1C(=O)C2CC=CCC2C1=O)Nc1nc2ccccc2s1 (stereo not drawn),3%,-7%,42%[activator]
Cc1cccc(NC(=O)CN2CCSc3ccccc32)c1,2%,-4%,-10%
O=C(c1ccc(F)cc1)N1CCOC(c2nc(-c3ccc(F)cc3)no2)C1 (stereo not drawn),-6%,-17%,-22%
Cc1nc2ccccc2c(=O)n1NC(=O)C1CC1C (stereo not drawn),1%,5%,0%
O=C(OCCOc1ccc(Br)cc1)c1ccc(Cl)nc1,-1%,-18%,-12%
Cc1cc[n+](Cc2ccccc2)c(N)c1,1%,-7%,-18%
CCOc1ccccc1OCCCC(=O)Nc1cccc(S(=O)(=O)N2CCOCC2)c1,4%,-20%,2%
COc1ccc(C(=O)Nc2cc(OC)c(Cl)cc2OC)cc1,-2%,-1%,12%
O=C1C=C(c2ccc3ncccc3c2)C[C@@H](c2ccc(F)cc2)C1,-4%,-15%,-23%
CCc1nnc(NC(=O)c2cccc(S(=O)(=O)N3CCN(C(C)=O)CC3)c2)s1,0%,0%,-10%
O=C(CSc1nnnn1C1CC1)N1CCN(c2ccccc2F)CC1,11%,-3%,-3%
O=C(OCC(=O)c1ccc[nH]1)c1ccc2ccccc2n1,-5%,-16%,9%
CC1O[C@@H](OC2C(O)C(C)O[C@H](OC(=O)[C@]34CCC(C)(C)C[C@H]3C3=CCC5[C@@]6(C)CC(O)C(O[C@@H]7OC(CO)C(O)[C@@H](O)[C@@H]7O)[C@@](C)(C(=O)O)C6CC[C@@]5(C)[C@]3(CO)CC4)C2O[C@H]2OC(C)[C@@H](O[C@@H]3OCC(O[C@@H]4OC(CO)C(O)[C@H](O)C4O)[C@@H](O)[C@@H]3O)[C@H](O)C2O)C(O)C(O)C1O (stereo partly drawn),5%,-5%,-21%
N#Cc1ccc(C2=CC(=O)C[C@H](c3ccc4c(c3)OCO4)C2)cc1,-3%,-2%,-20%
CCN(CC)CCCn1c2c(c(SCC(=O)Nc3cc(OC)cc(OC)c3)nc1=O)CCC2,-4%,0%,-19%
COc1ccc(C(=O)c2ccc(CC(=O)O)s2)cc1,-1%,5%,-28%
CCOC(=O)c1c(C)n(-c2ccc(C)cc2)c2ccc(OCC(O)CNCC3CCCO3)cc12 (stereo not drawn),-4%,8%,?
COc1ccc(N(C)S(=O)(=O)c2cccc(C(=O)Nc3nc(C)c(C(C)=O)s3)c2)cc1,2%,1%,?
CCC(NC(=O)CN1CCN(C(=O)c2cccs2)CC1)c1ccc(C)cc1 (stereo not drawn),0%,-8%,-7%
CC[C@]12c3[nH]c4cc(CCC(=O)N(C)C)ccc4c3CCN1C(=O)[C@@H](CC(=O)NCCN1CCOCC1)C[C@@H]2C(=O)N1CCN(C(=O)C2CC2)CC1,4%,-2%,-3%
COc1ccc(CCNC(=O)CSc2nc3[nH]c(=O)cc(O)c3s2)cc1,-1%,3%,-5%
COc1ccc(NC(=O)Nc2ccc3c(c2)C(=O)N([C@H](C)CO)C[C@H](C)[C@@H](CN(C)S(=O)(=O)c2cccs2)O3)cc1,6%,5%,-16%

# The final 4 compounds of the section above are carried over, then new ones follow.
Molecule,SARS PLP yeast,RE007 growth inh,StopGo reporter
CCC(NC(=O)CN1CCN(C(=O)c2cccs2)CC1)c1ccc(C)cc1 (stereo not drawn),0%,-8%,-7%
CC[C@]12c3[nH]c4cc(CCC(=O)N(C)C)ccc4c3CCN1C(=O)[C@@H](CC(=O)NCCN1CCOCC1)C[C@@H]2C(=O)N1CCN(C(=O)C2CC2)CC1,4%,-2%,-3%
COc1ccc(CCNC(=O)CSc2nc3[nH]c(=O)cc(O)c3s2)cc1,-1%,3%,-5%
COc1ccc(NC(=O)Nc2ccc3c(c2)C(=O)N([C@H](C)CO)C[C@H](C)[C@@H](CN(C)S(=O)(=O)c2cccs2)O3)cc1,6%,5%,-16%
COc1ccccc1OCC(=O)NNC(=O)CSC(=S)N1CCCC1,4%,1%,-15%
O=C(NN1C(=O)c2ccccc2NC12CCCCC2)c1ccccc1,-2%,0%,4%
O=C(COC(=O)c1ccc([N+](=O)[O-])o1)NCCc1ccccc1,-4%,-9%,-1%
CNC[C@@H]1Oc2c(NS(C)(=O)=O)cccc2C(=O)N([C@@H](C)CO)C[C@H]1C,-3%,-6%,-12%
O=C(NNC(=O)c1cccc(-n2cccc2)c1)c1ccccc1,0%,4%,22%
CC(C)(C)C(=O)CSc1nc(N)cc(=O)[nH]1,-1%,11%,-2%
COc1ccc(N2CCN(C(=O)COC(=O)c3ccc(CSC)o3)CC2)cc1,8%,5%,-25%
CC(=O)NC(CC(=O)Nc1ccc(S(=O)(=O)NC2=NCCCCC2)cc1)c1ccccc1 (stereo not drawn),?,3%,2%
CCCn1c(SCC(=O)N(C2CCCCC2)C2CCS(=O)(=O)C2)n[nH]c1=O (stereo not drawn),-6%,-2%,-3%
C[C@H](CO)N1C[C@H](C)[C@@H](CN(C)S(=O)(=O)c2cccs2)Oc2ccc(NS(=O)(=O)c3cn(C)cn3)cc2C1=O,-15%,1%,14%
CCN(Cc1ccc2c(c1)OCCO2)S(=O)(=O)c1ccc(NC(C)=O)cc1,0%,8%,-19%
N#Cc1ccc(OCC(=O)N2CCN(C(=O)c3ccco3)CC2)cc1,1%,-12%,-8%
COc1ccc2nc(-c3ccccc3)cc(C(=O)N3CCC3)c2c1,1%,-16%,-5%
CC(C)n1nccc1NS(=O)(=O)c1ccccc1,4%,2%,-20%
O=C(NCCN1CCOCC1)c1ccc2c(c1)N(Cc1c(F)cccc1Cl)C(=O)c1ccccc1S2,-1%,19%,?
O=C(COC(=O)c1ccc(Br)o1)NC1CCCc2ccccc21 (stereo not drawn),-3%,8%,-4%
Cc1ccc2nc3cc([N+](=O)[O-])cc([N+](=O)[O-])c3cc2c1,-23%,?,?
Cn1nc(N2CCN(S(=O)(=O)c3ccccc3)CC2)c(=O)n(C)c1=O,4%,-12%,-16%
CCOC(=O)C1CCN(C(=O)c2cccc(S(=O)(=O)N3CCc4ccccc43)c2)CC1,-8%,-17%,27%
O=C(c1ccc2c(c1)OCO2)N1CCN(S(=O)(=O)c2ccc(Br)cc2Cl)CC1,-9%,18%,-22%
CCOC(=O)c1cccc(C(=O)Nc2nc3ccc(OC)cc3s2)n1,-2%,-6%,20%
Cc1cc(C(=O)NNC(=O)C(C)(C)Oc2ccc(Cl)cc2)c(C)o1,-6%,10%,-15%
O=C(NC(Cc1cnc[nH]1)C(=O)O)c1ccccc1 (stereo not drawn),0%,0%,-11%
C/C=C(\C)C(=O)OC1CC(C)(C)C[C@H]2C3=CC[C@@H]4[C@@]5(C)CCC(O[C@@H]6O[C@@H](C(=O)O)[C@@H](O)C(O[C@@H]7OC[C@H](O)[C@@H](O)[C@@H]7O[C@@H]7OC(CO)C(O)[C@@H](O)[C@@H]7O)C6O[C@@H]6OC(CO)C(O)C(O)C6O)[C@@](C)(CO)[C@@H]5CC[C@]4(C)[C@]3(C)CC(O)[C@@]12CO (stereo partly drawn),-10%,6%,-18%
CC(C)NC(=O)NC(=O)COC(=O)c1ccc(S(=O)(=O)Nc2ccccc2)cc1,-3%,0%,37%[activator]
Cc1cc(-n2c(C)cc(C(=O)CN3C(=O)C(=O)N(C)C3=O)c2C)no1,-4%,20%,4%
COCCN(C(=O)c1sc2ccccc2c1Cl)c1c(N)n(CC(C)C)c(=O)[nH]c1=O,-1%,4%,-19%
CN(Cc1ccc2c(c1)OCO2)C(=O)c1cc(-c2ccccc2)c(N2CCOCC2)s1,0%,-6%,-15%
CC1CN(S(=O)(=O)c2cccc(C(=O)NCC3COc4ccccc4O3)c2)CC(C)O1 (stereo not drawn),-5%,-2%,-8%
Cn1nc(C(=O)NCC2COc3ccccc3O2)c2ccccc2c1=O (stereo not drawn),1%,12%,-23%
COC(=O)C1=C(c2ccccc2OCc2ccccc2)C[C@@H]2CC[C@H]1N2C(=O)NCCN1CCOCC1,0%,-19%,-19%
Cc1ccc(C2=NCCn3c2c2ccc([N+](=O)[O-])cc2[n+]3[O-])cc1,-1%,2%,45%[activator]
Cc1c(Cl)cccc1NC(=S)NC1CCN(C(C)C)CC1,-1%,-20%,-6%
C=CC[C@H](CC(=O)NCCO)C(=O)NC[C@@H](OC(=O)[C@H](CC=C)CC(=O)OC(C)(C)C)c1ccccc1,-9%,8%,-3%
O=C(Nc1ccc(F)cc1)C(c1ccccc1)N1CCN(CC(=O)N2CCCC2)CC1 (stereo not drawn),11%,7%,5%
COc1ccc(O)c(C(=O)c2cnn(C(=O)c3ccc(C)cc3)c2)c1,-2%,27%,6%
O=C(Cn1c(=O)cnc2ccccc21)NNC(=O)c1ccccc1Cl,0%,2%,-3%
CCOC(=O)c1ccc(NS(=O)(=O)c2c(C)n[nH]c2C)cc1,0%,3%,17%
CCOc1ccccc1N1CCN(CC(=O)Nc2ccnn2C2CCCC2)CC1,-7%,-6%,?
Cc1cccc(N=[N+]([O-])c2cccc(C)n2)n1,-4%,-20%,44%[activator]
CC1(C)CC(=O)C=C(c2cccc(Br)c2)C1,-1%,9%,-3%
O=C(Cc1ccsc1)Nc1ccc2c(c1)OCO2,9%,-1%,38%[activator]
NC(=O)c1ccsc1NC(=O)COC(=O)C1=NNC(=O)CC1,3%,3%,-6%

# Bioassay records: PubChem, National Center for Advancing Translational Sciences (NCATS)
